# GCN5L2 inh = inhibitors of human GCN5L2 histone acetyltransferase. Q92830. GCN5L2 HAT assay, ThioGlo1 CoA-SH fluorescence. Potency, µM (doses to about 58.9 µM), for inactives: at the highest dose activity change, negative = inhibition, usual class: inhibitors. hit rate 0.21% among 390,000; active = well fitted inhibition curve with a large enough effect; inconclusive = small, poorly fitted or top-dose-only effect, or another doubt; inactive = no such curve, though single readings can be large or run the other way
# Target sequence (Q92830 whole entry, looked up): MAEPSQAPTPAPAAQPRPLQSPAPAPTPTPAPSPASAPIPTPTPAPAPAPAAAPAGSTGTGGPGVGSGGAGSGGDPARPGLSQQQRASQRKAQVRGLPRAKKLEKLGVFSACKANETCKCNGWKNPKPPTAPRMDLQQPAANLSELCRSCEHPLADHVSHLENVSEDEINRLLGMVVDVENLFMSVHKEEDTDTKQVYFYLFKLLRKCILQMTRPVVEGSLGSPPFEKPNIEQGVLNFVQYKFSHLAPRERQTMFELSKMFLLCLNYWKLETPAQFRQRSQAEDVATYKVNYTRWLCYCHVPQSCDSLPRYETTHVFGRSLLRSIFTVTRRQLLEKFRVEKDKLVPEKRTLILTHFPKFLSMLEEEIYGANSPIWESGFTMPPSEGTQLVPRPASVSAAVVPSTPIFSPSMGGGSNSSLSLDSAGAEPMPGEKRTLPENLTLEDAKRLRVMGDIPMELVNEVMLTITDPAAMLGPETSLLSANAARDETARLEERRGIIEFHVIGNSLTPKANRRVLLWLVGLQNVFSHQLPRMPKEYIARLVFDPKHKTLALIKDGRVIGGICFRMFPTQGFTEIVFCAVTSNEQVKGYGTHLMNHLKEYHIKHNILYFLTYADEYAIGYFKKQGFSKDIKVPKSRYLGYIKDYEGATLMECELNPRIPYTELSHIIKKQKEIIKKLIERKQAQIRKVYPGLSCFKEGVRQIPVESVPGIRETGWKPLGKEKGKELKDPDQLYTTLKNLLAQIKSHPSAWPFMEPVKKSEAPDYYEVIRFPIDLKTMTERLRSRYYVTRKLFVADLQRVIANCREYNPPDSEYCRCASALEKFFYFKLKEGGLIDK
#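 Fluorescence readout, Ex340nm/Em540nm: ThioGlo1 (50uM final) reacts with free CoA thiol released as 20nM GCN5L2 acetylates H3(1-25) peptide (75uM) using acetyl-CoA (70uM). Compound and enzyme sat 15 min beforehand; 20 min room-temperature reaction.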
# The depositor's hits bear a star; ? = inconclusive; & = joins results of further samples; [ ] = remark or other dose. % is scaled to controls: 0 for no effect and ±100 for the full control effect; potency is read from the fitted curve at half-maximal effect.
# Preview:
SMILES,GCN5L2 inh
CCOc1ccccc1C(=O)NCC(=O)NNC(=O)c1cccs1,-1.5%
CCc1ccc(N(C(=O)c2csnn2)C(C(=O)NC(C)(C)CC)c2cccnc2)cc1 (stereo unspecified),0.3%
COc1ccc(OC)c(S(=O)(=O)N2CCC(C(=O)NC3CC3)CC2)c1,-2.7%

# The listing, from the start:
SMILES,GCN5L2 inh
CCOc1ccccc1C(=O)NCC(=O)NNC(=O)c1cccs1,-1.5%
CCc1ccc(N(C(=O)c2csnn2)C(C(=O)NC(C)(C)CC)c2cccnc2)cc1 (stereo unspecified),0.3%
COc1ccc(OC)c(S(=O)(=O)N2CCC(C(=O)NC3CC3)CC2)c1,-2.7%
CCOC(=O)C1=C(C)OC(N)=C(C(=O)OCC)C1c1cccnc1 (stereo unspecified),-6.8%
O=C(COC(=O)c1cc(S(=O)(=O)N2CCOCC2)ccc1O)Nc1cc(S(=O)(=O)N2CCCC2)ccc1Cl,-2.4%
COc1ccc(Cn2c(=O)c3oc4ccccc4c3n(Cc3ccccc3)c2=O)cc1,-6.0%
O=C(NCc1ccccn1)c1ccc(Cl)c(NC2=NC3CS(=O)(=O)CC3S2)c1 (stereo unspecified),-22.3%
O=C(O)CC1(c2ccccc2)C(=O)c2ccccc2C1=O,-3.5%
COc1cc(S(=O)(=O)N2CCN(c3ccccc3F)CC2)c(OC)cc1Cl,-8.6%
Cc1ccc(S(=O)(=O)NCCN2CCOCC2)cc1C,-1.1%
CC1CCCCC1NC(=O)CSc1nnc(COc2ccc(Cl)cc2)o1 (stereo unspecified),-4.3%
Cc1c(N2C(=O)c3ccc(Br)cc3C2=O)c(=O)n(-c2ccccc2)n1C,-12.9%
O=C(NCCCN1CCOCC1)c1cn(-c2ccccc2)nc1-c1cccs1,-2.3%
CCOC(=O)CN1C(=O)C2(OCCCO2)c2cc(Br)ccc21,-1.7%
O=S(=O)(c1ccc(N2CCOCC2)nc1)N(Cc1ccccn1)Cc1ccccn1,-1.0%
O=C(Nc1nccs1)c1ccc(COc2ccccc2)o1,3.0%
COc1ccccc1Nc1nnc(SCC(=O)N2CC(=O)Nc3ccccc32)s1,1.0%
COCCNC(=O)CSc1nnc(NC(=O)Nc2ccc(C)cc2)s1,-25.3%
Nc1ccc(S(=O)(=O)NC(Cc2ccccc2)C(=O)O)cc1 (stereo unspecified),-4.4%
CC(C)(C)c1ccc(C(=O)NNc2ncnc3c2cnn3-c2ccc(Cl)cc2)cc1,2.7%
CC(C)Cc1nnc(NC(=O)C2CCN(C(=O)c3ccc(Cl)cc3)CC2)s1,-1.8%
COc1ccc(N2CC(C(=O)Nc3cccc(C)n3)CC2=O)cc1 (stereo unspecified),7.1%
Cn1c(=O)[nH]c(=O)c2c1nc(NCCc1ccccc1)n2CC(O)COc1ccccc1 (stereo unspecified),-3.2%
COc1ccc([N+](=O)[O-])cc1NC(=O)C(C)N(C)Cc1ccc(Br)cc1 (stereo unspecified),-6.3%
CCN(CC)C(=O)c1[nH]cnc1C(=O)N[C@@H](C)c1ccccc1,-1.4%
CCOC(=O)c1[nH]c(C)c(C(=O)NCc2ccccc2Cl)c1C,-10.7%
NCCCCCCNS(=O)(=O)c1cccc2c(Cl)cccc12,-5.6%
COc1cccc(NC(=O)CN(C)C(C)C(=O)NC(=O)NC2CCCCC2)c1 (stereo unspecified),-4.5%
Cc1cn([C@H]2C=C[C@@H](CO)O2)c(=O)[nH]c1=O,-7.7%&1.7%&-1.4%&-5.2%&3.5%
CCCNC(=O)CSc1nc(-c2cccs2)cc(C(F)(F)F)n1,-9.1%
COc1ccc(NC(=O)CC2C(=O)N(C)C(=S)N2CCc2ccccc2F)cc1 (stereo unspecified),-5.6%
CCOC(=O)C1=C(C)N(Cc2ccc(C(=O)O)cc2)C(=O)NC1c1ccc([N+](=O)[O-])cc1 (stereo unspecified),-4.8%
CC1CCC(C(C)C)C(=O)/C1=C\c1ccc(NC(=O)CCC(=O)O)cc1 (stereo unspecified),-5.6%
CCc1nnc(NC(=O)[C@@H](NC(=O)c2cccc(C)c2)C(C)C)s1,0.8%
COc1ccc(-c2nnn(CC(=O)N3CCN(c4ccccc4OC)CC3)n2)cc1OC,-0.2%
C/C(=N\OCC(=O)OCC(=O)NC(=O)c1ccc(OC(F)F)cc1)c1ccc2c(c1)OCO2,0.4%
O=C(c1cccs1)N1CCn2c1nc1ccccc12,-16.4%
CC(C)OC(=O)NCCOC(=O)Nc1ccc(Cl)c(Cl)c1,1.9%
CC(=O)Oc1ccc(NC(=O)Cc2ccccc2)c(C(=O)O)c1,-13.5%
CCOc1ccc(Br)cc1S(=O)(=O)NC1CCCC1,-6.7%
CCN1C(=O)[C@H]2[C@@H](c3ccc(-c4ccc(C(C)=O)cc4)cc3)N3CCC[C@@]3(C(=O)OC)[C@H]2C1=O,-4.4%
Cc1ccc(C(CC(=O)O)NC(=O)c2ccc(S(=O)(=O)N3CCCC3)cc2)cc1 (stereo unspecified),0.9%
N/C(=N\OC(=O)CCc1ccccc1)c1cccc(Br)c1,20.3%
COC(=O)C(C)Sc1nnc(Cc2cc(=O)[nH]c(=O)[nH]2)n1-c1cccc(OC)c1 (stereo unspecified),-3.8%
CCn1c(=O)c2c(nc3n2CCS3)n(C)c1=O,-1.2%
CCN(c1ccccc1)S(=O)(=O)c1ccc(Cl)c(C(=O)NCc2ccco2)c1,-1.7%
O=C1OCc2ccc(NS(=O)(=O)c3ccc(C(F)(F)F)cc3)cc21,-0.6%
COc1cc(NS(=O)(=O)c2ccc(N)cc2)nc(OC)n1,-7.3%
O=C(CSc1nc(O)c(Cc2ccccc2)c(=O)[nH]1)N1CCOCC1,-11.2%
COc1cccc2sc(Nc3nc(C)c(C(C)=O)s3)nc12,13.9%
COC(=O)c1ccc(COc2cccc(C)c2C)cc1,-15.0%
CCn1nc(C)cc1C(=O)N1CCCC(CCC(=O)NCc2ccccc2F)C1 (stereo unspecified),-0.2%
O=C(CCC(=O)N1CCN(c2ccccc2)CC1)Nc1nnc(C2CCCCC2)s1,4.0%
CC(C)NC(=O)c1ccccc1-c1nc(-c2ccccc2Cl)no1,1.1%
Cc1cc(N(C)NC(=S)Nc2ccccc2)nc(C)n1,-7.5%
N#CCCn1nc(-c2ccccc2)cc1-n1c(C(F)(F)F)nc2ccccc21,-12.7%
CC(Sc1n[nH]c(N)n1)C(=O)Nc1ccccc1-c1ccccc1 (stereo unspecified),-0.4%
COc1cccc(C(=O)Nc2ccc(-c3nc4ccc(C)cc4s3)cc2)c1OC,-5.8%
COc1cccc(-c2nn(C)c3sc(C(=O)N4CCN(c5ccccn5)CC4)cc23)c1,-9.0%
Cc1ccc(OCCSc2nc3ccccc3n2CC(=O)NC(C)C)cc1,0.1%

# Of the compounds above, 3 contain a CF3 group.
SMILES,GCN5L2 inh
CCCNC(=O)CSc1nc(-c2cccs2)cc(C(F)(F)F)n1,-9.1%
O=C1OCc2ccc(NS(=O)(=O)c3ccc(C(F)(F)F)cc3)cc21,-0.6%
N#CCCn1nc(-c2ccccc2)cc1-n1c(C(F)(F)F)nc2ccccc21,-12.7%

# The results go on.
SMILES,GCN5L2 inh
COC(=O)CCCC1=CC2=CC(=O)C(C)(OC(=O)CCc3ccccc3)C(=O)C2=CO1 (stereo unspecified),-14.4%
Cc1cnn(-c2cc(N/N=C/c3cccc(F)c3)ncn2)c1,2.6%
C=CCNC(=O)CCCC(=O)NCC=C,-18.8%
CCC(C)n1c(SCC(=O)NCc2ccco2)nnc1-c1cccc(S(=O)(=O)N2CCOCC2)c1 (stereo unspecified),-3.3%
Cc1ccc(OC(=O)CCC(=O)Nc2ccc(S(=O)(=O)Nc3cc(C)on3)cc2)cc1,-1.7%
CCOC(=O)c1cnc(-n2nc(C)cc2C)nc1NNc1cc(C)nc(-c2ccccc2)n1,-11.4%
CCC(C)Sc1ccc(-c2nc3ccc(Cl)cn3c2NCc2ccccc2)cc1 (stereo unspecified),-11.7%
O=C(c1ccco1)N1CCN(C(=O)c2sccc2-c2ccccc2)CC1,-2.8%
O=C(O)c1cc2nc(C3CC3)cc(C(F)(F)F)n2n1,-13.5%
COc1ccc(Cc2nnc(NC(=O)CSc3ccccc3)s2)cc1,4.9%
CCOc1cc(C(=S)N2CCOCC2)ccc1OC(=O)c1ccc(C)cc1,?
Cc1cccc2nc(CNc3ccc(F)cc3)cn12,4.1%
C#CCSc1n[nH]c(=O)n1-c1cccc(C(F)(F)F)c1,?
O=C(CCCN1C(=O)c2cccc3cccc(c23)C1=O)N1CCc2ccccc2C1,?
C=CCn1c(SCCOc2ccc(OC)cc2)nnc1C(CO)NC(=O)c1ccc(OC)cc1 (stereo unspecified),-5.0%[0.501 µM]
O=S(=O)(Nc1ccc(Oc2ncccn2)c(Cl)c1)c1ccc(Cl)cc1,0.2%
O=C(/C=C/c1ccc(S(=O)(=O)N2CCOCC2)cc1)N(CCO)Cc1ccccc1,-3.2%
NC1=NC2(CCC(c3ccccc3)CC2)n2c(nc3ccccc32)N1 (stereo unspecified),-3.2%
Cc1ccc(NC(=O)CSc2nnc(CN3CCOCC3)n2C)cc1C,-1.0%
COc1ccc(CNC(=O)C2CCN(C(=O)N(C)C)CC2)c(OC)c1,5.1%[0.501 µM]
Cn1c(=O)c2c(ncn2CC(=O)N/N=C/C=C/c2ccccc2[N+](=O)[O-])n(C)c1=O,-0.3%
CCOC(=O)N1CCN(C(=O)CSc2nnc(COc3ccc(Cl)cc3)o2)CC1,-5.0%
O=C(Nc1ccc(Br)cc1)c1cccc(N2C(=O)C3CCCCC3C2=O)c1 (stereo unspecified),-24.1%
COC(=O)c1cccc(Cn2nnc3ccccc3c2=O)c1,-1.0%

# Compounds listed so far with a furan ring, fused or not (5):
SMILES,GCN5L2 inh
COc1ccc(Cn2c(=O)c3oc4ccccc4c3n(Cc3ccccc3)c2=O)cc1,-6.0%
O=C(Nc1nccs1)c1ccc(COc2ccccc2)o1,3.0%
CCN(c1ccccc1)S(=O)(=O)c1ccc(Cl)c(C(=O)NCc2ccco2)c1,-1.7%
CCC(C)n1c(SCC(=O)NCc2ccco2)nnc1-c1cccc(S(=O)(=O)N2CCOCC2)c1 (stereo unspecified),-3.3%
O=C(c1ccco1)N1CCN(C(=O)c2sccc2-c2ccccc2)CC1,-2.8%

# (next part)
SMILES,GCN5L2 inh
CCCCOC(=O)/C=C\C(=O)OCCCC,-29.8%
O=C(CN1C(=O)/C(=C\c2ccccc2Cl)Oc2ccccc21)NCc1cccnc1,-20.4%
CCOc1ccc(CNC(=O)c2ccc(CS(=O)c3ccccc3)o2)cc1 (stereo unspecified),-0.8%
COc1ccc(OCC(O)CN(C)C(=O)/C=C/c2cccc([N+](=O)[O-])c2)cc1 (stereo unspecified),-9.3%
O=C1CC(c2ccccc2)CC(=O)N1c1ccccc1,-5.7%
O=C(CCCCCC(=O)N(CCO)CCO)N(CCO)CCO,-6.3%
CN(C)CCCSC(=N)N,11.2%[21.4 µM]
O=C(CSc1nc2c([nH]c3ccccc32)c(=O)n1-c1ccccc1)N1CCc2ccccc21,0.1%
Cc1cccc(NC(=O)CCNS(=O)(=O)c2cccc3nonc23)c1,-11.0%&0.1%
CCS(=O)(=O)N1CCCC(C(=O)NCCCOC(C)C)C1 (stereo unspecified),-13.3%
N/C(=N\OC(=O)c1cccc(Br)c1)c1ccccc1,-5.4%
Cc1c(-c2nc(-c3ccccc3)no2)nnn1-c1cccc(C(F)(F)F)c1,-26.1%
COc1ccc(CC(=O)Nc2ccc(-c3nnc(-c4ccccc4)o3)cc2)cc1,-4.2%
COc1ccc(NC(=S)NC(C)c2ccncc2)cc1OC (stereo unspecified),21.2%
COc1ccc(CNC(=O)CCCn2c(=S)[nH]c3cc4c(cc3c2=O)OCO4)cc1,-3.1%
COC(=O)c1ccc(NC(=O)CSc2nnc(Cc3cccn3C)n2-c2ccc(F)cc2)cc1,-0.9%
O=C(CSCc1ccc(Br)cc1)N1CCCC1,2.5%
CSCC[C@H](NC(=O)c1nn(C)c(=O)c2ccccc12)c1nc2ccccc2[nH]1,-5.8%

# Screens deposited in PubChem by National Center for Advancing Translational Sciences (NCATS).

# A portion of the library; most or all hits stand in other tables.
